Screening results from PubChem BioAssay.
StopGo FLuc – lowers the firefly signal of an FMDV 2A StopGo reporter; HEK cells with a luciferase reporter of 2A StopGo recoding; Potency, µM (titrated, usually from 57.5 µM), for the others: at the top dose signal change, negative = less light; 0.23% of 120,000 active; AID 1745856; active = well fitted falling curve with a large enough effect; inconclusive = small, poorly fitted or top-dose-only effect; inactive = no such curve, though single readings can be large or run the other way; note: nearly all actives have a fitted effect of over 60% in size; overnight with compound
2A Renilla – FMDV 2A StopGo reporter, Renilla signal | HEK cells with a luciferase reporter of 2A StopGo recoding | Potency, µM (doses to about 57.5 µM), for the others: at the top dose signal change, negative = less light | 0.32% of 120,000 active; active means well fitted falling curve with a large enough effect; inconclusive means small, poorly fitted or top-dose-only effect; inactive means no such curve, though single readings can be large or run the other way; note: nearly all actives have a fitted effect of over 55% in size; overnight with compound
The depositor's hits bear a star; ? = inconclusive; & = joins results of further samples; [ ] = remark or other dose. % is set by controls: 0 for no effect and ±100 for the full control effect; potency is the fitted concentration of half-maximal effect. A portion of the library; count on the stated rates, not on these rows.

SMILES	StopGo FLuc	2A Renilla
O=S(=O)(NCCCn1ccc2ccccc21)c1ccc(F)c(F)c1	5%	0%
Cc1cccc(N2CCN(C(=O)c3cccn4c(=O)c5cc(Cl)ccc5nc34)CC2C)c1 (configuration not stated)	-12%	-19%
COc1cc(C=Nc2ccc(C)c(I)c2)ccc1OC(C)=O	10%	10%
CCOC(=O)c1c(S(=O)(=O)N2CCCC(C(=O)N3CCN(c4cc(C)ccc4C)CC3)C2)c(C)n(C)c1C (configuration not stated)	-12%	-5%
CN(CCOc1ccc(F)cc1)Cc1nc(N)nc(N(C)C)n1	3%	-5%
Cc1ccc(OCCSc2nnc(COc3ccc(Cl)cc3)n2C)cc1	-3%	43%[activator]
Fc1ccc(CNC(=S)NCc2cccs2)cc1	-1%	134%[activator]
COc1ccc(-c2onc(C)c2C)cc1S(=O)(=O)N1CCN(c2cc(C)ccc2C)CC1	-11%	14%
CCCS(=O)(=O)c1nc(S(=O)(=O)c2ccc(Cl)cc2)c(NCC(C)C)s1	-9%	49%[activator]
COc1ccc(CCNC(=O)CCn2c(=O)c3ccccc3n(CC(=O)Nc3ccc(C)cc3C)c2=O)cc1OC	-10%	2%
CCc1ccc2c(c1)NC(c1ccc(C)o1)=NC(c1ccc(F)cc1)=N2	-1%	8%
Cc1sc(-c2cccc(O)c2)nc1-c1ccccc1	110%[activator]	6%
CC(C)c1ccc(SCc2nc3c(c(=O)[nH]c(=O)n3C)n2C)cc1	7%	-13%
CN(CCCOC(=O)c1cc2ccccc2o1)C1CN(Cc2cn(Cc3ccccc3C(F)(F)F)nn2)S(=O)(=O)C1 (configuration not stated)	73%[activator]	11%
CCCCCNc1nc(CC)c2c(c1C#N)CCCC2	-3%	-12%
O=C(CCCC(=O)OCC(=O)c1cccc([N+](=O)[O-])c1)Nc1cc(C(F)(F)F)ccc1Cl	-8%	-5%
CCN(CC)S(=O)(=O)c1cccc(C(=O)NCC2COc3ccccc3O2)c1 (configuration not stated)	23%	75%[activator]
Cc1oc(-c2cccs2)nc1CC(=O)Nc1cc(F)ccc1F	15%	36%[activator]
COc1ccccc1CNC(=O)CCC1N=C2c3ccccc3N=C(SCC(=O)Nc3ccc(F)cc3)N2C1=O (configuration not stated)	-7%	-14%
COc1cc(CN2CCN(Cc3ccc(C)cc3)CC2)cc(OC)c1	-4%	-3%
O=S1(=O)c2ccccc2N(Cc2cccc(F)c2)c2ccccc21	-5%	4%
O=C1c2ccccc2C(=O)C1c1ccccc1	-8%	-1%
COc1cc(NC(=O)N2CCN(c3cc(-c4noc(C)n4)ccc3C)CC2)cc(OC)c1OC	12%	8%
COc1ccccc1/C=C(/C#N)C(=O)c1c[nH]c2cccc(C)c12	17%	15%
COc1ccc(NC(=O)N2CCN(c3cnccn3)CC2)cn1	3%	-7%
CCOc1ccc(NC(=O)N(Cc2c[nH]c3ccccc23)C2CCCCC2)cc1	47%[activator]	-2%
O=C(COc1ccccc1F)Nc1ccc(Cl)c(-c2nc3ccccc3[nH]2)c1	-13%	21%
C[C@@H](C(=O)NC1CCN(Cc2ccccc2)CC1)N1Cc2ccccc2C1=O	1%	1%
CCOC(=O)c1cc(-c2ccccc2)sc1NC(=O)CCN1CCOCC1	-2%	-6%
CC(C)c1ccc(NC(=O)C(Sc2ccccc2)c2ccccc2)cc1 (configuration not stated)	34%[activator]	21%
COc1ccc(N2CCN(C(=O)CSc3n[nH]c(-c4ccccc4)n3)CC2)cc1	-24%	0%
CCN1C(=O)C2(c3ccccc31)c1c(oc3ccccc3c1=O)C(=O)N2CCOC (configuration not stated)	-9%	-25%
Cc1ccc(C2c3[nH]c4ccccc4c3CCN2C(=O)CCc2ccccc2)cc1 (configuration not stated)	?	?
CN(CCO)c1cccc2c1S(=O)(=O)N(Cc1cn(Cc3ccc(Cl)cc3)nn1)Cc1ccccc1O2	3%	212%[activator]
Cc1ccc(Cn2c(SCCN3CCCCC3)nc3c2c(=O)n(C)c(=O)n3C)cc1	1%	2%
Cc1nn(CC(=O)NC(C)c2ccccc2)c(=O)c2cc3occc3n12 (configuration not stated)	-3%	-11%

Sorted by SMILES length (descending): 3 of the compounds above
SMILES	StopGo FLuc	2A Renilla
C[C@@H](C(=O)NC1CCN(Cc2ccccc2)CC1)N1Cc2ccccc2C1=O	1%	1%
Cc1nn(CC(=O)NC(C)c2ccccc2)c(=O)c2cc3occc3n12 (configuration not stated)	-3%	-11%
CCOC(=O)c1cc(-c2ccccc2)sc1NC(=O)CCN1CCOCC1	-2%	-6%

Continuation.
SMILES	StopGo FLuc	2A Renilla
Cc1cc(-n2ccnc(NCCc3ccc(S(N)(=O)=O)cc3)c2=O)ccc1Br	5%	11%
O=S(=O)(CCN1CCN(c2ccc(O)cc2)CC1)c1ccccc1	2%	-1%
Cc1cc(SCC(=O)Nc2ccc(C(N)=O)cc2)nc2ccccc12	8%	2%
Cc1ccc(NC(=O)Cn2c(=O)n(Cc3ccccc3)c(=O)c3c(C)c(C(=O)N(C)C)sc32)c(C)c1	-24%	-13%
Cc1ccc(Nc2c(-c3ccc(C)s3)nc3ncccn23)cc1	133%[activator]	21%
COc1cc(OC)cc(C(=O)Nc2ccc(S(=O)(=O)Nc3cnc4ccccc4n3)cc2)c1	27%	28%
COC(=O)c1ccccc1NC1c2ccccc2C(=O)N1Cc1ccccc1Cl (configuration not stated)	21%	73%[activator]
CCOc1ccccc1NC(=O)CN1C(=O)C2(SCC(=O)N2c2cccc(F)c2)c2ccccc21 (configuration not stated)	2%&23%	-1%&11%
Cc1ccc(-c2cnc(CCC(=O)N(C)Cc3ccc(C)o3)o2)cc1	126%[activator]	29%
N#Cc1nc(-c2ccc(S(=O)(=O)N3CCCCCC3)cc2)oc1NCCCn1ccnc1	-2%	91%[activator]
CCc1cccc(C)c1NC(=O)Cn1cnc2c1c(=O)n(C)c(=O)n2C	-12%&16%	110%&0%[activator]
O=C(COC(=O)c1ccc(S(=O)(=O)NCc2ccco2)cc1)c1ccccc1	-6%	-6%
CC(C)C[C@H]1COc2cc(Br)ccc2S(=O)(=O)N1Cc1cn(Cc2ccc(F)cc2)nn1	6%	6%
Cn1cnc(S(=O)(=O)N2CCCC(C(=O)Nc3ccc(OC(F)(F)F)cc3)C2)c1 (configuration not stated)	-20%	-2%
O=[N+]([O-])c1c(N2CCCC(CO)C2)ccc2ncccc12 (configuration not stated)	0%	-4%
O=C(Cn1nnc2sc(-c3ccccc3)cc2c1=O)Nc1cccc(C(F)(F)F)c1	-9%	-9%
Cc1nc(SCC(=O)NN2C(=O)NC3(CCCCC3)C2=O)c2ccccc2n1	-9%	-20%
CCOC(=O)c1c(C)c(CCC(=O)NCCN2CCCCCC2)c(C)n1C	-10%	-13%
CC(C)N(C(=O)Cn1cc(S(=O)(=O)Cc2ccc(Br)cc2)c2ccccc21)C(C)C	-15%	-6%
COc1ccc(S(=O)(=O)Nc2cccc(-c3ccc(N4CCCC4)nn3)c2)cc1F	70%[activator]	272%[activator]
Cc1[nH]c2ccc(C(=O)N(Cc3ccc(F)cc3)C3CC3)cc2c1C	-23%	0%
Cc1nc(N2CCCC2)ncc1C(=O)N1CCN(c2ccccc2F)CC1	-8%	13%
O=c1[nH]c(=O)n(Cc2ccccc2)c2nc(-c3ccncc3)n(CC3CCCO3)c12 (configuration not stated)	-3%	-8%
Cc1[nH]c(C)c(S(=O)(=O)NCc2ccc(Cl)cc2)c1C(=O)N1CCCCC1	11%	122%[activator]
Cc1ccc2c(C)nc(Nc3nc(C)c(Cc4ccccc4)c(=O)[nH]3)nc2c1	-4%	0%
Cc1ccc2[nH]c(=O)c3cc(C(=O)NCc4ccc(Cl)cc4)sc3c2c1	15%	16%
Cn1cnc2c1c(=O)n(CCCSc1nnc(-c3ccc(C(C)(C)C)cc3)o1)c(=O)n2C	-26%	?
O=C(CN1CCN(c2ccc(F)cc2)CC1)Nc1ncc2c(n1)CCCC2=O	-6%	-14%
CN(C)S(=O)(=O)c1cccc(NC(=O)CSc2cccc3cccc(Cl)c23)c1	1%	232%[activator]
Cn1ccnc1C(NC(=O)COc1ccccc1F)c1ccccc1 (configuration not stated)	-7%	-8%
Cc1ccc(C)c(N2CCN(C(=O)c3ccc4c(c3)nc3n4CCCCC3)CC2)c1	4%	-28%
COc1ccc(-n2ncc3c(NC4CCCC4)ncnc32)cc1	20%	-17%
COc1ccc(-c2cc3c(=O)[nH]nc(SCC(=O)N4CCC(C)CC4)n3n2)cc1OC	9%	5%
COc1ccccc1NC(=O)c1c(C)cc(C)nc1SCC(=O)Nc1ccc(C)cc1	-21%	24%
CCc1ccc(C(=O)c2cn(CC(=O)Nc3ccc4c(c3)OCCO4)c3ccc(CC)cc3c2=O)cc1	-21%	-15%
CCN1CCN(C(=O)Cn2cnc3c2c(=O)n(C)c(=O)n3C)CC1	2%	-3%

A portion from further up, as a working copy:
SMILES	StopGo FLuc	2A Renilla
CCc1ccc(C(=O)c2cn(CC(=O)Nc3ccc4c(c3)OCCO4)c3ccc(CC)cc3c2=O)cc1	-21%	-15%
CCN1CCN(C(=O)Cn2cnc3c2c(=O)n(C)c(=O)n3C)CC1	2%	-3%

Additional records follow:
SMILES	StopGo FLuc	2A Renilla
CCN(CC)S(=O)(=O)c1ccc(N2CCCC2)c(NS(=O)(=O)c2ccc(OC)cc2)c1	-5%	49%[activator]
CC(C)NC(=O)Nc1ccc2c(c1)N(C)C(=O)c1ccccc1S2	?	?
Nc1c(C(=O)Nc2ccc(F)cc2)sc2nc(-c3cccs3)cc(C(F)(F)F)c12	-1%	-5%
O/N=C/c1c(F)c(F)c(F)c(F)c1F	0%	8%
COC(=O)c1ccc(COC(=O)c2ccccc2CC#N)cc1	37%[activator]	9%
CCCSc1nc(=O)c2c(n1C)NC(=O)CC2c1cccc(F)c1F (configuration not stated)	22%	17%
CCCCOc1ccc(S(=O)(=O)Nc2ccc(-c3ccc(N4CCCCCC4)nn3)cc2)cc1	27%	14%
Cc1ccc2nc(-c3cc(NC(=O)C(C)C)ccc3Cl)oc2c1	67%[activator]	5%
Cn1nc(C(=O)Oc2cccc(Cl)c2Cl)c2ccccc2c1=O	1%	-7%
CCCS(=O)(=O)N1CCN(c2ccc(N3CCOCC3)nn2)CC1	60%[activator]	-7%
COc1cccc(C(=O)Nc2ccc3nc(SCCOc4ccccc4)sc3c2)c1	-5%	2%
Cc1noc(C)c1S(=O)(=O)Nc1ccc(C(=O)Nc2ccc(Br)cc2)cc1	-2%	17%
CCOC(=O)COc1ccccc1C1C(C(=O)OC)=C(C)NC2=C1C(=O)c1ccccc12 (configuration not stated)	14%	19%
CC1CCC(C(=O)Nc2ccc(Br)cc2)CC1 (configuration not stated)	171%[activator]	24%
Cn1ncc2c(Sc3nnc(-c4ccccc4)n3-c3ccc(F)cc3F)ncnc21	6%	-7%[1.06 µM]
COCCn1ccc2c(OCC(=O)Nc3c(C)cc(C)cc3C)cccc2c1=O	-3%	-14%
CCCCNC(=O)c1cc(-c2ccc(Cl)c(Cl)c2)on1	16%	2%
Cc1ccc(NS(=O)(=O)c2ccc(CCC(=O)O)cc2)cc1S(=O)(=O)N1CCCCC1	15%	74%[activator]
COc1ccc(C(=O)OCCCN(C)C2CN(Cc3cn(Cc4ccc([N+](=O)[O-])cc4)nn3)S(=O)(=O)C2)cc1OC (configuration not stated)	76%[activator]	27%
COc1ccc(CCNC(=O)C2CCN(S(=O)(=O)c3c(C)noc3/C=C/c3ccc(C)cc3)CC2)cc1OC	-5%	-5%
Cc1cc2nc(COC(=O)c3ccc(NC(=O)c4ccc(F)cc4)cc3)cc(=O)n2o1	9%	6%
CC(C)Oc1ccc(C(=O)Nc2cccc3cccnc23)cc1	0%	0%
COc1cnc(CSc2ncccn2)cc1OCC(=O)N1CCc2ccccc21	7%	4%
CCNC(=O)CC1C(=O)N(c2ccc(F)cc2)C(=O)N1CCOC (configuration not stated)	-5%	5%
COc1ccc(CCNCc2c(C(=O)O)c(C)n(Cc3ccccc3C)c2C)c(OC)c1	-15%	-6%
CCc1cccc(NC(=O)Cn2ccn3nc(-c4ccc(OC)c(OC)c4)cc3c2=O)c1	19%	-11%
CCc1cccc(C)c1NS(=O)(=O)c1cc2[nH]c(=O)c(=O)[nH]c2cc1C	-14%	-10%
O=S(=O)(c1ccc(F)c(F)c1)N1CCN(C23CC4CC(CC(C4)C2)C3)CC1	-3%	1%
CC(Sc1ncnc2nc[nH]c12)C(=O)NCc1ccc(Cl)c(Cl)c1 (configuration not stated)	4%	0%
C=C(C)C1CC=C(C)/C(=N\NC(=S)Nc2ccccc2)C1 (configuration not stated)	11%	9%
Cc1c(CC(=O)NCc2ccccc2)c(=O)oc2cc(O)c(Cl)cc12	0%	0%
Cc1ccc(S(=O)(=O)N2CCC(C(=O)NCc3cnn(-c4ccccc4)c3)CC2)cc1	-9%	-11%
COc1cc(Cl)c(NS(=O)(=O)c2ccc(-c3coc(C)n3)cc2)c(OC)c1	?	-3%
N#Cc1ccccc1NC(=O)CSc1nc(-c2ccccc2)cc(C(F)(F)F)c1C#N	-10%	-12%
Oc1c(C(c2ccccc2)N2CCC(O)CC2)sc2nc(-c3ccco3)nn12 (configuration not stated)	-10%	-7%
